Screens: PubChem BioAssay, several laboratories
INS promoter inh – TRM-6 insulin promoter activity inhibition | TRM-6 cells (human fetal islet line), insulin promoter-eGFP reporter, imaging; reporter expression induced with tamoxifen | inhibition, % at 2 µM | 130,000 tested, 0.9% active;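 active = inhibition above the mean plus 3 SD, with well images judged a real hit on visual review, cut at about 60% in these data, passing the limit was not always enough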
PKD1 inh – PKD1 (human) kinase inhibition; Q15139; PKD1 kinase fluorescence polarization assay; inhibition, %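 (about 10 µM by stock and volumes)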; 200,000 tested, 0.056% active;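 active = inhibition of 50% or more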;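 note: controls were vehicle for no effect and a reference inhibitor for full effect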
Target sequence (Q15139 whole entry, looked up): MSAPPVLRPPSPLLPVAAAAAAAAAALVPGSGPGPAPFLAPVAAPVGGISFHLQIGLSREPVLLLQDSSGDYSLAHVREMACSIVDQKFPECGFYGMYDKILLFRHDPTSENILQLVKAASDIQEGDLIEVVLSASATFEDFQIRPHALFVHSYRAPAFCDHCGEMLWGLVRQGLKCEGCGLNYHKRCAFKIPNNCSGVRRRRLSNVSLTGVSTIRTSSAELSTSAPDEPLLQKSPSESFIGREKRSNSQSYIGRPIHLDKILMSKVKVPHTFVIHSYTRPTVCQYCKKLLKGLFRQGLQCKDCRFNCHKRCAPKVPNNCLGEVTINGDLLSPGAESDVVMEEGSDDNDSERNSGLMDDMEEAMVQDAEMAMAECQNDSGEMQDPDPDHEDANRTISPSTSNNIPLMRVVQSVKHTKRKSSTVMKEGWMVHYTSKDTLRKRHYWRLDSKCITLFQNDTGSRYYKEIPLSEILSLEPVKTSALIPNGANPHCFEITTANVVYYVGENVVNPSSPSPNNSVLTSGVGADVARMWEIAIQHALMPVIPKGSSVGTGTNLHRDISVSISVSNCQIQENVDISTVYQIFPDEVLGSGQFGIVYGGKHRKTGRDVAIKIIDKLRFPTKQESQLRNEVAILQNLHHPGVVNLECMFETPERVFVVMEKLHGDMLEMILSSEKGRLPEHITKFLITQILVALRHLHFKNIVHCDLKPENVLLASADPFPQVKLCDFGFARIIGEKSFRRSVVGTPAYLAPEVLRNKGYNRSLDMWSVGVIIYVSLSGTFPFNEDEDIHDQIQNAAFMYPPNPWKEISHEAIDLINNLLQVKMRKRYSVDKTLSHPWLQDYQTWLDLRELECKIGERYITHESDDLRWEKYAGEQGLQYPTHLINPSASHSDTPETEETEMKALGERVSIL
HSV replic up – HSV replication enhancement. HSV replication augmentation in cells, fold increase. maximum fold increase. 220,000 tested, 0.005% active. AID 1956;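 active = peak rise of 1.5-fold or more in the series; tested in PC3 cells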;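 note: first round at 10 µM; read as green reporter fluorescence; hits show the peak of a series up to 25 µM; 1 = signal of infected wells without compound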
RGS16-Gao HTS – modulates binding between human RGS16 and Galphao; bead-based flow cytometry RGS16-Galphao binding, fluorescence; actives lie on both sides; binding response (% of control), % at 10 µM; 220,000 tested, 0.38% active; O15492+P09471; AID 1441;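 active = below 25% or above 175%, edge rows of some plates excepted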;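 note: Galphao activated by GDP with aluminum fluoride before binding; 100% = wells without compound and 0% = beads without RGS; some results beyond the cut were filed as inactive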
GALR2 ag – activates the human galanin receptor 2 | activation, %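 (tested at 5 µM)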 | 140,000 tested, 0.48% active | GALR2-expressing cells, agonist activation read-out | AID 803;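 active = above mean plus 3 SD of all compounds, about 5% in these data, not always enough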;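 note: 0% = vehicle buffer wells and 100% = reference agonist at full effect; tested in CHO reporter cells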
INS promoter inh cell count – recorded beside INS promoter inh, whose call it bears; normalized cell count, %; measured here: cell count, toxicity; reference of the scale not given here;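 cells exposed to compound for 48 h; stained nuclei by imaging scaled within each plate; lower means fewer cells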
HSV replic up primary fold – also measured in HSV replic up; calls as there; fold increase; compound at 10 µM; measured here: primary screen fold increase 10 uM; tested in PC3 cells;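 GFP signal in the first replicate; 1 = infected wells without compound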
An asterisk follows results filed as active; i = inactive; · = not tested or not shown. Not a hit list; overall some 1.3% were active at least once.

SMILES | INS promoter inh | INS promoter inh cell count | PKD1 inh | HSV replic up | HSV replic up primary fold | RGS16-Gao HTS | GALR2 ag
CC(C)N(C(=O)CN1C(=O)NC2(CCCCCC2)C1=O)C(C)C | -4 | 100 | -4 | i | 0.98 | 97 | 0.8
N#CCC(=O)NNc1c([N+](=O)[O-])cc(C(F)(F)F)cc1[N+](=O)[O-] | · | · | · | i | 1.2 | 97 | ·
CSC(=NC1CCCCC1)NS(=O)(=O)c1ccccc1 | 18 | 115 | 17 | i | 1.1 | 99 | -1.7
COc1ccc(OC)c(NC(=O)c2cc3c(Cl)nc4ccccc4c3s2)c1 | -3 | 40 | 3 | i | 1.1 | 106 | -0.2
COCCNC(=O)Cn1cc(C(=O)c2cccs2)c2ccccc21 | -344 | 46 | -9 | i | 0.95 | 102 | -1.0
Cc1ccc(S(=O)(=O)N[C@@H](CC(C)C)C(=O)NCc2ccco2)cc1 | -78 | 46 | -11 | i | 0.94 | 105 | -0.6
CCc1cc2c(=O)c(-c3nc4ccccc4n3C)c(C)oc2c(CN2CCN(C)CC2)c1O | -29 | 83 | -3 | · | · | 104 | -0.6
CC(=O)N1c2ccccc2C2(O)N=C(C)SC12 (stereo not drawn) | 24 | 106 | -1 | i | 0.96 | 34 | -0.8
NC(=O)C1CCN(C2=C(NS(=O)(=O)c3ccc(Cl)cc3)C(=O)c3ccccc3C2=O)CC1 | · | · | · | i | 0.88 | 104 | ·
COc1ccc(CNC(=O)CSc2nnc(-c3cccnc3)n2N)cc1 | 0 | 99 | 12 | i | 1 | 101 | ·
Cc1ccc(NC(=O)C2CC(=O)OC23CCOC(C)(C)C3)cc1 (stereo not drawn) | -24 | 116 | -1 | i | 0.95 | 99 | 0.5
COC(=O)COC(=O)c1ccc(O)cc1 | -6 | 117 | -12 | i | 0.98 | 109 | -0.8
Nc1nc(N2CCN(Cc3ccccc3)CC2)n[nH]1 | 3 | 88 | 6 | i | 0.92 | 99 | ·
CC(=O)/C(=N/Nc1ccc(Br)cc1)Sc1cccc2cccnc12 | · | · | -4 | i | 1 | 101 | -2.2
CCCCn1c(NCc2ccccn2)nc2ccccc21 | -44 | 68 | 7 | i | 0.87 | 94 | -2.2
O=C(CN1CCC(n2cnc3cc(F)ccc32)CC1)Nc1ccccc1Br | 7 | 132 | -4 | i | 0.87 | 100 | ·
COc1ccc(Cl)cc1NC(=O)c1cccc(NC(=O)CCC(=O)O)c1 | 0 | 100 | -1 | i | 0.95 | 106 | -1.0
CC(=O)c1cnc2cc(-c3ccc(C)cc3)nn2c1C | 50 | 104 | -6 | i | 1.1 | 94 | -0.8
N#CC1=C2SCC(O)(c3ccccc3)N2C(=O)CC1c1cccs1 (stereo not drawn) | · | · | -7 | i | 0.68 | 104 | -2.7
Cc1cc(C(=O)OCC(=O)N2CCOCC2)c2ccccc2n1 | -15 | 132 | -2 | i | 1.1 | 98 | -2.6
CCn1c(=O)n(CC(=O)N2CC(C)CC(C)C2)c(=O)c2ccccc21 (stereo not drawn) | 9 | 143 | 5 | i | 0.92 | 97 | -4.7
COc1cc(-c2cc(C(=O)Nc3ccc(O)cc3)c3ccccc3n2)cc(OC)c1OC | · | · | · | i | 0.89 | 92 | ·
COC(=O)Cn1c(=NC(=O)CSC(C)=O)sc2ccccc21 | -29 | 115 | -3 | i | 1 | 101 | -0.4
Cc1ccc(/C(O)=C2/C(=O)C(=O)N(CCN3CCOCC3)C2c2cccs2)cc1 (stereo not drawn) | -8 | 112 | -3 | · | · | 105 | -3.2
O=C(N/N=C/c1cccc([N+](=O)[O-])c1)c1cc2ccccc2o1 | · | · | -4 | i | 0.89 | 106 | -0.4
Cc1ccc(C)c(NC(=O)C2CC(Cl)=CCC2C(=O)O)c1 (stereo not drawn) | -295 | 101 | -4 | i | 0.81 | 94 | -1.4
Cc1cc(NC(=O)CSc2nnc(-c3ccc(O)cc3)o2)no1 | · | · | · | i | 0.89 | 106 | ·
CCN1C(=O)c2cccc3cccc1c23 | · | · | 11 | i | 1.1 | 114 | -2.0
O=C(CSc1nnc(CN2CCOCC2)n1-c1ccc(Cl)cc1)Nc1cc(Cl)ccc1O | -46 | 61 | -5 | i | 0.84 | 100 | 1.0
Cc1ccc2oc(C(=O)Nc3nnc(C)s3)c(C)c2c1 | 57 | 65 | 0 | i | 1.1 | 91 | -2.2
Cc1nnc(SCC(=O)Nc2ccc(Cl)cn2)s1 | -5 | 129 | -2 | i | 1 | 122 | -0.7
O=C(CN1CCCC1)Nc1ccc(Br)cc1 | · | · | -1 | i | 0.95 | 102 | ·
S=C1NC(c2ccccc2)=CC(c2ccccc2)N1 (stereo not drawn) | · | · | -1 | i | 1.1 | 96 | ·
Cc1ccc(NC(=O)C(c2ccc(Cl)cc2Cl)N2CCCC2)cc1 (stereo not drawn) | 2 | 124 | 0 | i | 0.91 | 100 | -2.4
CC(C)n1nc(C(=O)N2CCN(S(=O)(=O)c3cccs3)CC2)c2ccccc2c1=O | · | · | · | i | 0.98 | 99 | ·
Cc1cccc(NC(=O)CN2C(=O)N/C(=C/c3cc(C)n(-c4ccncc4)c3C)C2=O)c1 | 7 | 57 | 3 | i | 1 | 123 | -0.8
COc1cccc(CN(CC2CCCO2)S(=O)(=O)c2ccc(S(=O)(=O)N(C)C)cc2)c1 (stereo not drawn) | -51 | 81 | -5 | i | 0.94 | 91 | -2.2
COc1cccc(CNC(=O)C2CCCN(c3nn4c(=O)cc(C)nc4s3)C2)c1 (stereo not drawn) | -27 | 100 | 3 | i | 1 | 101 | -0.3
COC(=O)[C@@H]1C[C@H]2CC[C@H](O)C[C@H]2N1Cc1ccc(N2CCN(C)CC2)cc1 | · | · | · | i | 0.87 | 102 | ·
C=CCN1CCN(C(c2ccccc2)c2nnnn2CCC(C)C)CC1 (stereo not drawn) | -60 | 101 | -8 | i | 0.91 | 99 | -0.8
CCOc1cc(C2CC(=O)NC3=C2C(=O)C(C(=O)OC)C(C)C3)cc(Br)c1O (stereo not drawn) | 6 | 92 | -5 | i | 0.99 | 87 | -1.5
CCOc1ccccc1Nc1nc(N)nc(CN2CCCCC2C)n1 (stereo not drawn) | -8 | 97 | -1 | i | 0.82 | 102 | ·
Cc1cc(/C=N/NC(=O)c2c(Br)cnn2C)c(C)n1-c1cccc(Br)c1 | -31 | 135 | -4 | i | 0.91 | 103 | -1.4
COc1ccc(-c2[nH]c(-c3ccc(C(=O)O)cc3)nc2-c2ccccc2)cc1 | 7 | 115 | -6 | i | 0.99 | 98 | -0.7
CCSc1nc2ccc(C)cc2cc1C#N | · | · | -7 | i | 0.88 | 58 | ·
CC(C)NC(=O)C1(c2ccccc2)CC1(Cl)Cl (stereo not drawn) | · | · | 0 | i | 1.2 | 100 | -1.4
CN(C)C(=O)c1ccccc1-c1ccccc1 | -187 | 59 | -5 | i | 0.94 | 102 | -0.3
COc1ccccc1/C=C/C1NC(=O)NC(C)=C1C(=O)OC(C)C (stereo not drawn) | · | · | -7 | i | 0.91 | 107 | ·
COc1ccc(NC(=S)NCCN2CCOCC2)cc1 | · | · | 1 | i | 0.89 | 99 | ·
O=C(Nc1cccnc1)C1(c2ccccc2)CCCC1 | -9 | 157 | -6 | i | 0.96 | 106 | -1.6

Gathered by group, the entries above containing a nitro group on carbon.
SMILES | INS promoter inh | INS promoter inh cell count | PKD1 inh | HSV replic up | HSV replic up primary fold | RGS16-Gao HTS | GALR2 ag
N#CCC(=O)NNc1c([N+](=O)[O-])cc(C(F)(F)F)cc1[N+](=O)[O-] | · | · | · | i | 1.2 | 97 | ·
O=C(N/N=C/c1cccc([N+](=O)[O-])c1)c1cc2ccccc2o1 | · | · | -4 | i | 0.89 | 106 | -0.4

Additional results.
SMILES | INS promoter inh | INS promoter inh cell count | PKD1 inh | HSV replic up | HSV replic up primary fold | RGS16-Gao HTS | GALR2 ag
CCOC(=O)C1=C(C)Nc2ccccc2N=C1NC(=O)Cc1ccc(OC)cc1 | · | · | 4 | i | 1 | 101 | 0.7
Cn1cccc1CNC(=S)Nc1ccccc1Cl | · | · | -2 | i | 0.96 | 89 | ·
Cc1cc(C(=O)Cn2nc(C(=O)O)c3ccccc3c2=O)c(C)n1C1CC1 | -5 | 17 | -7 | i | 0.9 | 112 | ·
Fc1ccc(CSc2nncn2NC/C=C/c2ccccc2)cc1 | -53 | 111 | 4 | i | 0.9 | 116 | -1.5
Cc1ccc(S(=O)(=O)Nc2ccc3c(c2)CCC3)cc1C | · | · | 0 | i | 1.2 | 96 | -0.3
O=[N+]([O-])c1cc(Cl)cc(/C=N/NC(=S)Nc2ccc(S(=O)(=O)N3CCOCC3)cc2)c1O | · | · | · | i | 0.59 | 95 | ·
COc1ccc(/C=N/NC(=O)c2cccc(OC(F)(F)C(F)F)c2)cc1O | -29 | 101 | 4 | i | 1.1 | 111 | -1.4
N#Cc1cc(N)ccc1Sc1ccccc1 | -23 | 131 | -4 | i | 0.93 | 96 | -1.1
CCCCN1C(=O)NC(NC(=O)C2CC2)(C(F)(F)F)C1=O (stereo not drawn) | -43 | 103 | 6 | i | 1 | 100 | ·
Cc1ccc(S(=O)(=O)NCCc2nnc3ccc(SCc4cccnc4)nn23)cc1 | · | · | 2 | i | 1 | 108 | ·
COc1ccc(CNC(=O)COC(=O)Cc2ccsc2)cc1 | 7 | 78 | -1 | i | 0.89 | 99 | ·
CC(C)Sc1nnc(CNC(=O)C23CC4CC(CC(C4)C2)C3)n1C1CCCCC1 | · | · | -5 | · | · | 108 | -0.5
COc1ccc(N2CCN(C(=O)CN(c3cccc(Br)c3)S(C)(=O)=O)CC2)cc1 | · | · | -1 | i | 1 | 101 | -2.3
N#Cc1cc2cc3c(cc2nc1NCCNC(=S)NCCCN1CCOCC1)OCO3 | · | · | -3 | i | 0.94 | 112 | ·
Oc1cccc2cc3cccc(O)c3c(O)c12 | · | · | 0 | i | 0.89 | 97 | ·
CCn1c(CCC(=O)Nc2cc(F)ccc2C)nc2cc(S(=O)(=O)N(C)C)ccc21 | -10 | 69 | 7 | i | 0.92 | 101 | -0.8
CCCc1cc(C(F)(F)F)c(C#N)c(=O)[nH]1 | 68* | 60* | -1 | i | 1.1 | 96 | -1.1
CCOC(=O)C(=CNc1cc(C)ccc1-n1cccc1)C(=O)OCC | · | · | · | i | 0.64 | 102 | ·
CCCc1ccc(S(=O)(=O)NCCc2ccncc2)cc1 | 30 | 104 | 3 | i | 1 | 100 | -2.1

Of the compounds above, these have an aryl methoxy group.
SMILES | INS promoter inh | INS promoter inh cell count | PKD1 inh | HSV replic up | HSV replic up primary fold | RGS16-Gao HTS | GALR2 ag
COc1ccc(OC)c(NC(=O)c2cc3c(Cl)nc4ccccc4c3s2)c1 | -3 | 40 | 3 | i | 1.1 | 106 | -0.2
COc1ccc(CNC(=O)CSc2nnc(-c3cccnc3)n2N)cc1 | 0 | 99 | 12 | i | 1 | 101 | ·
COc1ccc(Cl)cc1NC(=O)c1cccc(NC(=O)CCC(=O)O)c1 | 0 | 100 | -1 | i | 0.95 | 106 | -1.0
COc1cc(-c2cc(C(=O)Nc3ccc(O)cc3)c3ccccc3n2)cc(OC)c1OC | · | · | · | i | 0.89 | 92 | ·
COc1cccc(CN(CC2CCCO2)S(=O)(=O)c2ccc(S(=O)(=O)N(C)C)cc2)c1 (stereo not drawn) | -51 | 81 | -5 | i | 0.94 | 91 | -2.2
COc1cccc(CNC(=O)C2CCCN(c3nn4c(=O)cc(C)nc4s3)C2)c1 (stereo not drawn) | -27 | 100 | 3 | i | 1 | 101 | -0.3
COc1ccc(-c2[nH]c(-c3ccc(C(=O)O)cc3)nc2-c2ccccc2)cc1 | 7 | 115 | -6 | i | 0.99 | 98 | -0.7
COc1ccccc1/C=C/C1NC(=O)NC(C)=C1C(=O)OC(C)C (stereo not drawn) | · | · | -7 | i | 0.91 | 107 | ·
COc1ccc(NC(=S)NCCN2CCOCC2)cc1 | · | · | 1 | i | 0.89 | 99 | ·
CCOC(=O)C1=C(C)Nc2ccccc2N=C1NC(=O)Cc1ccc(OC)cc1 | · | · | 4 | i | 1 | 101 | 0.7
COc1ccc(/C=N/NC(=O)c2cccc(OC(F)(F)C(F)F)c2)cc1O | -29 | 101 | 4 | i | 1.1 | 111 | -1.4
COc1ccc(CNC(=O)COC(=O)Cc2ccsc2)cc1 | 7 | 78 | -1 | i | 0.89 | 99 | ·
COc1ccc(N2CCN(C(=O)CN(c3cccc(Br)c3)S(C)(=O)=O)CC2)cc1 | · | · | -1 | i | 1 | 101 | -2.3
